# AmpC inh no det = inhibitors of E. coli AmpC beta-lactamase without detergent; P00811; AmpC nitrocefin hydrolysis, absorbance 480 nm, no detergent; potencies from a single point are estimates; actives 1.8% (n = 71,000); Potency, µM (series often up to 28.7 µM), inactives show at the top dose activity change, negative = inhibition; active = falling curve, for most hits resting on a single point; inconclusive = weak or doubtful change; inactive = flat or rising curve; further: % of control where 0% means no effect; about half of the hits show no inhibition at the top dose; a quarter of the inactives give rising signals
# Target sequence (P00811 whole entry, looked up): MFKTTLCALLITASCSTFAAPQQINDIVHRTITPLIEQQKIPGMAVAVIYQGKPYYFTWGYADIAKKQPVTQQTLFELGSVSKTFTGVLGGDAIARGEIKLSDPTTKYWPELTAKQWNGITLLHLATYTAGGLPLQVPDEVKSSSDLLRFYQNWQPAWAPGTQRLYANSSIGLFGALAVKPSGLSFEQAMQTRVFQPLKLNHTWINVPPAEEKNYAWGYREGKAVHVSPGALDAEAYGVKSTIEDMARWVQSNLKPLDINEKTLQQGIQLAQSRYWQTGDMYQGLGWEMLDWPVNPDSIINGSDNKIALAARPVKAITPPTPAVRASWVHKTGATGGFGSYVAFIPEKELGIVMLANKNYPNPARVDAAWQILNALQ
#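 Enzyme, pH 7.0 phosphate. Compound titrations were pre-incubated with AmpC for 15 min at room temperature before nitrocefin (stock 800 uM) addition; product formation was recorded at 480 nm every 20 s for 4 min.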
# Starred values were filed as active, the others as inactive; ? = inconclusive; [ ] = remark or other dose. Potency means the concentration at half of the fitted maximal effect. Some of the compounds tested (hit frequency here may not be typical).
# A first look:
SMILES,AmpC inh no det
CCN(C(=O)CSc1nc2cc(C(=O)OC)ccc2c(=O)n1Cc1ccco1)c1cccc(C)c1,34%
CC1CCc2c(sc3ncn4c(SCC(=O)NCc5ccco5)nnc4c23)C1 (centres undefined),22%
NNCCc1ccccc1,-6%[12.8 µM]
Cc1oc2cc(O)ccc2c(=O)c1Oc1ccccc1,-9%

# The whole of this part, from the first entry:
SMILES,AmpC inh no det
CCN(C(=O)CSc1nc2cc(C(=O)OC)ccc2c(=O)n1Cc1ccco1)c1cccc(C)c1,34%
CC1CCc2c(sc3ncn4c(SCC(=O)NCc5ccco5)nnc4c23)C1 (centres undefined),22%
NNCCc1ccccc1,-6%[12.8 µM]
Cc1oc2cc(O)ccc2c(=O)c1Oc1ccccc1,-9%
CC12CN3CC(C)(CN(C1)C31C(=O)N(Cc3ccccc3)c3ccccc31)C2=O (centres undefined),1%
O=C(NCC(c1cccnc1)N1CCN(c2ccccc2)CC1)c1ccco1 (centres undefined),11%
Cc1ccccc1/C=C\C1=NCCN1,-6%
Cc1ccc(CNC(=O)CCS(=O)(=O)c2cccc3nsnc23)cc1,8%
CC(NC(=O)COc1cccc(Br)c1)C(=O)O (centres undefined),0%
COc1cccc(Cn2c(=O)c(-c3ccc(Cl)cc3)nc3cnc(OC)nc32)c1,19%
NC(=O)C[C@@H](N)c1nn[nH]n1,-21%[5.75 µM]
COc1ccccc1N1CCN(CC(=O)Nc2cccc(F)c2)CC1,81%
COCCCNC(=O)C12CCC(C)(C(=O)C1)C2(C)C (centres undefined),9%
O=C(O)c1cc(Cl)c(Cl)cc1C(=O)N1CCOCC1,-2%
O=C(NC1CC2CCCC(C1)N2C(=O)NC1CCCCC1)c1ccc(F)cc1 (centres undefined),14%
CCC(=O)Nc1ccc(NC(=O)c2ccccn2)cn1,4%
CN(C)CCCNc1cc(Cl)c(S(=O)(=O)N2CCCCC2)cc1C(=O)O,8%
CCOC(=O)c1oc2ccccc2c1NC(=O)c1ccc2c(c1)OCO2,5%
CCN(CC)CCCNC(=O)N[C@@H](Cc1ccccc1)C(=O)O,-3%
CCCC(=O)Nc1ccc(N2CCOCC2)cc1,3%
O=C(c1ccco1)N1CCC(c2nc(-c3ccccc3Cl)no2)CC1,62%
N#Cc1nc(Cc2cccc3ccccc23)oc1NCC1CCCO1 (centres undefined),49%
O=C(Cn1ncnn1)OCc1ccccc1Cl,-2%
COc1cc(-c2noc(CCC(N)=O)n2)cc(OC)c1OC,-3%
CCC(C)NC(=O)C1CCC(=O)N1Cc1ccc(C)cc1 (centres undefined),5%
CCOC(=O)C1=C(C)Nc2nc(SCC)[nH]c(=O)c2C1c1ccncc1 (centres undefined),-6%
CC1=C(C(=O)OCc2ccccc2)C(c2ccc(C(F)(F)F)cc2)NC(=O)N1CCCCCC(=O)O (centres undefined),47%
NC(=O)c1cc(-c2ccccc2)nc(N2CCOCC2)n1,?
O=c1oc2c(CN3CCOCC3)c(O)c(Cl)cc2c2c1CCCC2,33%
Cc1ccc(Oc2ccc(-c3nc(N)nc(N)n3)cc2)cc1,49%
O=C(CN1C(=O)CSC1=O)NC1CCCCC1,-2%
CCOC(=O)c1c(C)c(C(=O)NCc2cccnc2)c(C)n1CC,8%
COC(=O)c1ccc(C(=O)OC)c(NC(=O)CSc2nc(-c3ccco3)cc(C(F)(F)F)n2)c1,31%
CCc1ccc(OCc2nnc(SCCN3CCOCC3)n2C)cc1,63%
Cc1nc(SCC(=O)Nc2ccc3c(c2)OCCO3)c2oc3ccccc3c2n1,62%
C=C(C)COc1ccc(-c2ncncc2Oc2ccc(OC)cc2)c(O)c1,26%
CN1CCN2c3ncccc3Cc3ccccc3C2C1 (centres undefined),24%
Cc1cc(=O)oc2cc(OCC(O)CN3CCN(c4ccc(F)cc4)CC3)ccc12 (centres undefined),64%
COc1ccc(OC)c(-n2c(O)cnc2Nc2nc(C)cc(C)n2)c1,-4%
CC1(C)SCC(C(=O)O)N1C=O (centres undefined),-6%

# Gathered by group: the entries above with fluorine.
SMILES,AmpC inh no det
COc1ccccc1N1CCN(CC(=O)Nc2cccc(F)c2)CC1,81%
O=C(NC1CC2CCCC(C1)N2C(=O)NC1CCCCC1)c1ccc(F)cc1 (centres undefined),14%
CC1=C(C(=O)OCc2ccccc2)C(c2ccc(C(F)(F)F)cc2)NC(=O)N1CCCCCC(=O)O (centres undefined),47%
COC(=O)c1ccc(C(=O)OC)c(NC(=O)CSc2nc(-c3ccco3)cc(C(F)(F)F)n2)c1,31%
Cc1cc(=O)oc2cc(OCC(O)CN3CCN(c4ccc(F)cc4)CC3)ccc12 (centres undefined),64%

# Other results.
SMILES,AmpC inh no det
O=C(C1CC1)N1CCCN(C(=O)C2CC2)CC1,-6%
CC(=O)NCC(=O)NC1(C(=O)NC2CCCC2)CCCCC1,-5%
Cc1ccccc1-n1c(Cn2c(=O)sc3ccccc32)nnc1SCC(N)=O,46%
Cc1nc(Nc2cccc(C(F)(F)F)c2)nc2c1C(=O)CC(C)C2 (centres undefined),-13%
CCc1nnc(NC(=O)c2c(OC)cccc2OC)s1,5%
CCC(=NCC1CCCO1)c1c(O)n(Cc2ccccc2)c(=O)[nH]c1=O (centres undefined),3%
CC(=O)NC(Cc1c[nH]c2ccccc12)C(=O)NCc1ccc2c(c1)OCO2 (centres undefined),4%
CCOC(=O)c1cccc2c1-c1ccccc1/C2=N/O,2%
CCOc1cc(N2CCOCC2)c(OCC)cc1NC(=O)COc1cccc2cccnc12,112%
COCCCNC(=O)Nc1ccc(Br)cc1Cl,3%
CC(C)NC(=O)c1cc2cc(Br)ccc2oc1=O,-2%
O=C(CSc1nnc(Cn2nnc(-c3ccccc3)n2)n1-c1ccccc1)Nc1ccc(F)cc1,21%
O=C(O)C1CCCN1c1ncnc2ccccc12 (centres undefined),-5%
O=C(O)c1ccncc1.O=C(O)c1ccncc1.[Cl][Pt]([Cl])([Cl])[Cl],-11%[5.75 µM]
COc1ccc(-n2c(Cc3cccn3C)nnc2SCC(=O)Nc2ccccc2)cc1,92%
CC(C)OCCCNC(=O)C1CCN(S(=O)(=O)N2CCCCC2)CC1,11%
CC(=O)c1ccc(NC(=O)C(C)Sc2nnnn2C)cc1 (centres undefined),-8%
COc1ccc(Cn2c(C)nc3oc4cc(OC)ccc4c(=O)c3c2=O)cc1,13%
CN(C)CCCc1cccnc1,3%[5.75 µM]
COc1ccc(N2C(=O)CC(N3CCOCC3)C2=O)cc1 (centres undefined),5%

# Arranged by SMILES length (lowest first): part of the list above.
SMILES,AmpC inh no det
CCOC(=O)c1c(C)c(C(=O)NCc2cccnc2)c(C)n1CC,8%
CC(C)OCCCNC(=O)C1CCN(S(=O)(=O)N2CCCCC2)CC1,11%
Cc1nc(SCC(=O)Nc2ccc3c(c2)OCCO3)c2oc3ccccc3c2n1,62%
Cc1cc(=O)oc2cc(OCC(O)CN3CCN(c4ccc(F)cc4)CC3)ccc12 (centres undefined),64%

# Next section
SMILES,AmpC inh no det
CN(C)c1ncc2nc(-c3ccccc3)c(=O)n(CCc3ccccc3)c2n1,-5%
c1csc(-c2nc(-c3ccncc3)no2)c1,7%
Cc1ccc(-c2nnc(-c3ccc(Br)cc3)o2)o1,-1%
CCCCOC(=O)CCn1[nH]c(=O)c2ccccc2c1=O,6%
CCOC(=O)c1cnc(-n2nc(C)cc2C)nc1N(C)C,5%
Cc1noc(C)c1S(=O)(=O)NCCc1ccc(S(N)(=O)=O)cc1,-4%
CCSc1nnc2c(n1)OC1(CCCC1)Nc1ccccc1-2,-22%
CCN(C(=O)c1cnc(N2CCN(c3ncccn3)CC2)c2ccccc12)c1cccc(Cl)c1,95%
O=C1CC(Sc2ncccn2)C(=O)N1c1ccccc1C(F)(F)F (centres undefined),19%
COc1ccccc1N1CCN(C(c2cc3ccc(C)cc3[nH]c2=O)c2nnnn2C2CCCC2)CC1 (centres undefined),88%
Cc1ccc(NC2=CC(=O)CC(C)(C)C2)cc1C,12%
c1cnc(N2CCC3(CCNCC3)CC2)nc1,52%
COc1ccc(C2C(C#N)=C(/N=C/N3CCN(C)CC3)OC3=C2C(=O)CC(C)(C)C3)cc1 (centres undefined),131%
CCCCS(=O)CC(COc1ccc(Cl)cc1)OC(=O)c1ccccc1 (centres undefined),96%
COc1ccccc1CNC(=O)CCCN1C(=O)COc2ccc(C)cc21,47%
COc1ccc(N2C(=O)CC(N3CCN(C4CCc5ccccc5C4)CC3)C2=O)cc1 (centres undefined),61%
COc1cc2c(cc1OC)[C@@H]1C(=O)c3ccc4c(c3O[C@@H]1CO2)C=CC(C)(C)O4,119%
COc1cccc(C(c2sc3nc(C)nn3c2O)N2CCN(c3ccccc3F)CC2)c1 (centres undefined),1%
CN1CCN(c2ncnc3ccc(-c4ccc(C(=O)N(C)C)cc4)cc23)CC1,-4%
Oc1ccccc1-c1ccccc1,0%
O=C(CCSc1ccccc1)Nc1ncccn1,-2%
N#Cc1c(NC(=O)CCC(=O)O)ccc2ccccc12,1%[5.75 µM]
COCCn1c(=O)c(-c2cn(C)c3ccccc23)nc2cnc(Oc3cccc(Cl)c3)nc21,2%
COC(=O)c1ccccc1NC(=O)C1CC(c2ccccc2O)=NO1 (centres undefined),9%
Cc1cc(C)cc(NC(=O)C2CCN(c3nc(C)cc(C)n3)CC2)c1,-10%
Cc1cccc(-c2ccc(C=Nc3c(C)n(C)n(-c4ccccc4)c3=O)o2)c1,74%
Cc1ccc2nc(-c3cccc(NC(=O)c4ccc5c(c4)OCCO5)c3)oc2c1,10%
Cc1ccc(C2NC(=O)NC(O)(C(F)(F)F)C2C(=O)c2ccccc2)o1 (centres undefined),6%
COC(=O)c1c(NC(=O)CCCC(=O)O)sc(C)c1C,7%
O=C(O)CC1C(=O)NCCN1C/C=C/c1ccccc1 (centres undefined),1%
CCCCN1CC(O)=C(c2nc3ccccc3s2)C1=N,-6%
CC(=O)c1ccc(N2C(=O)C3C(C2=O)C(C(=O)c2ccc(Cl)cc2)N2CCCC32)cc1 (centres undefined),37%
CC(C)(C)c1ccc(S(=O)(=O)n2c(CN3CCOCC3)nc3ccccc32)cc1,92%
CC(=O)Nc1ccc2nc(SCC(=O)O)sc2c1,-15%
Cc1ccc(N2CN=c3s/c(=C\c4ccccn4)c(=O)n3C2)cc1,-7%
Oc1ccc(N2CCN(C(c3cccs3)c3nnnn3CCc3ccccc3)CC2)cc1 (centres undefined),12%
Cc1ccc(O)c(N)c1,-23%
C=CCn1c(SCC(=O)NC2CCCCC2)nnc1C(C)NC(=O)c1cccs1 (centres undefined),20%
O=C(c1cccnc1)N1CCc2ccccc21,-1%
CCOC(=O)c1cnc2nc[nH]n2c1=O,-4%
C=CCNCc1cccn1-c1sc2c(c1C#N)CCCC2,11%
Cc1ccc2c(c1)-c1c(cnn1CC(=O)N1CCCN(Cc3ccccc3F)C1)CO2,130%
CN(C)Cc1c[nH]c2ccccc12,85%
O=C(CSc1nnc(-c2ccco2)o1)N1CCOCC1,1%
COc1ccccc1-c1nc(NCc2cccnc2)c2ccccc2n1,18%
Cc1ccc(S(=O)(=O)NCCNC(=O)N2CCOCC2)cc1,-3%
CCN(CCCNC(=O)c1[nH]c(C)c(C(C)=O)c1C)c1cccc(C)c1,24%
CCCn1c(C)nc2c(NCc3ccccc3)nc(C)nc21,48%
O=C(O)c1cccc(S(=O)(=O)N2CCOCC2)c1,-4%
O=C(c1cccs1)N1C2CCC1CC(O)(c1cccnc1)C2 (centres undefined),-5%
# Other compounds:
SMILES,AmpC inh no det
c1ccc(-c2nc(N3CCOCC3)c3ccccc3n2)nc1,8%
CC1(C)CC(=O)N(CC(=O)NC2CCCC2)c2ccccc2S1(=O)=O,21%
COc1ccc(NC(=O)N2CCC3(CC2)CCN(C(=O)c2csnn2)CC3)cc1,9%
C=CCN1C(=O)CN=C1Nc1ccc(OC)cc1OC,47%
CCN1/C(=C(\O)c2ccccc2)C(=O)c2ccccc2S1(=O)=O,-9%
Cc1ccc(-c2nnn(CC(=O)N(CC(=O)NC(C)C)c3cnc4ccccc4c3)n2)o1,79%
Cc1ccccc1-n1c(N)cc(=O)[nH]c1=S,-5%
CCOC(=O)N1CCC(N(C(=O)Nc2cccc(OC)c2)C(C)CC)CC1 (centres undefined),39%
Clc1ccc(NCc2nnc3n2CCCCC3)cc1,15%
O=C(NCc1nc(-c2ccccc2)no1)c1ccc(Br)o1,7%
O=[N+]([O-])O[C@H]1CO[C@H]2[C@H]1OC[C@@H]2O[N+](=O)[O-],-11%[12.8 µM]
CC(C)n1c(N2CCN(C(=O)c3cccs3)CC2)nc2ccccc21,44%
CC(=O)NC(CCS(C)(=O)=O)C(=O)Nc1cc(C)on1 (centres undefined),-7%
FC(F)(F)c1ccc(N2CCN(c3ncnc4c3nnn4Cc3ccccc3)CC2)nc1,9%
COC(=O)C1=C(C)N(C)C(=O)NC1c1ccccc1 (centres undefined),-11%
CCn1c(CNC(=O)COc2c(C)cccc2C)nnc1SCC(=O)Nc1nccs1,56%
COc1cccc2c1OC1(C)CC2NC(=O)N1c1cccc(C(=O)Nc2ccc3c(c2)OCCO3)c1 (centres undefined),52%
CCCCNc1ncnc2c1cnn2-c1ccccc1,-2%

# 3 entries from above, with tabs:
SMILES	AmpC inh no det
c1ccc(-c2nc(N3CCOCC3)c3ccccc3n2)nc1	8%
c1cnc(N2CCC3(CCNCC3)CC2)nc1	52%
O=C(CSc1nnc(-c2ccco2)o1)N1CCOCC1	1%

# Screening results (PubChem BioAssay)
